# BasE inh: blocks the Acinetobacter baumannii siderophore enzyme BasE; purified BasE, fluorescence polarization binding displacement; inhibition, % (no concentration beside the values); actives 0.1% (n = 84,000); AID 485350;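 active = both replicates above 25% with normal brightness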;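 note: 0% = negative plate control signal and 100% = positive plate control signal; stock transfer was 100 nL into about 30 µL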
# LANA-nucl inh: LANA-nucleosome interaction inhibition. AID 720717. FITC-LANA1-23 / chicken nucleosome fluorescence polarization; stronger effect = lower value. actives 0.3% (n = 51,000). z-score (test concentration not listed);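 active = both repeat wells score below -2 in polarization z-score versus plate sample wells, excluding overly bright wells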;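 note: 100 nL library stock added to about 30 µL; numbers are from one replicate; some results filed as inactive read as strong as hits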
#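 Assay system: FITC-LANA peptide and chicken nucleosomes; input: 240 nM purified chicken nucleosomes (480 nM peptide binding sites), final; also added: 50 nM FITC-LANA1-23 probe; medium: TEN-BT buffer, pH 7.5; doses: pin-transferred compound, 100 nL; times: 10–45 min, room temperature; technique: fluorescence polarization; replication: duplicates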
# * = called active by the depositor; · = no result given. An excerpt (hit frequency here may not be typical).
smiles,BasE inh,LANA-nucl inh
Clc1c(-c2nnc(-c3ccc(N4CCOCC4)cc3)o2)sc2ccccc12,2.0,0.93
Clc1cccc(OCc2ncn(-c3cccc(Cl)n3)n2)c1,·,-0.16
CCOC(=O)C1C2CCC(C2)N1S(C)(=O)=O (configuration not stated),0.1,·
CCOc1ccc(S(=O)(=O)NCc2ccncc2)cc1C(C)C,-1.6,-0.45
O=C(N1CCCC1)N1c2ccccc2Sc2ccccc21,-2.5,2.8
CCS(=O)(=O)Nc1ccc(C(=O)N(C)Cc2ccccc2)cc1,-0.6,-1
O=C(C1CCC1)N(c1nccs1)C1CCCCC1,1.5,·
O=C1C=CC(=O)N1c1ccc(-c2cnc(-c3ccc(N4C(=O)C=CC4=O)cc3)nc2)cc1,0.9,0.042
COC(=O)c1c(N)sc(Cc2ccccc2)c1C,2.2,-0.2
COc1cc(C2NCCS2)cc(OC)c1OC (configuration not stated),0.2,·
N/C(=N/c1nc2ccccc2o1)NC(=O)C(Cc1ccccc1)N1C(=O)c2ccccc2C1=O (configuration not stated),1.0,0.74
Cc1ccc(C(=O)N(C(=O)c2ccc(C)cc2)c2cc(C)on2)cc1,0.2,·
CCOC(=O)C(C)Nc1n[nH]c(=O)[nH]c1=O (configuration not stated),0.4,-1.1
CC(Oc1ccc(Br)cc1)C(=O)NN (configuration not stated),0.9,·
CC1CN(CCC(=O)Nc2ccc(S(N)(=O)=O)cc2)CC(C)O1 (configuration not stated),2.0,-0.4
CC1SCC(=NOCc2ccccc2)CS1 (configuration not stated),0.2,0.48
C=C(C)CNC(=S)NN,1.8,·
c1ccc(N2CCN(c3c4c(nc5ncnn35)CCC4)CC2)cc1,-1.2,·
CC1CC2c3cccc(C(=O)O)c3C(=O)N2c2ccc(F)cc21 (configuration not stated),1.2,·
CCCOCC(O)CN1CCCCC1 (configuration not stated),1.5,0.079
Cc1nc2nc(CN)nn2c(C)c1CCC(=O)NCC1CCN(Cc2ccc(F)cc2)CC1,-2.5,-0.36
Cc1ccc2c(c1)cc(CN(Cc1ccc3c(c1)OCO3)S(=O)(=O)c1ccccc1)c1nnnn12,-2.7,0.034
O=C(CCC(=O)N1CCc2ccccc2C1)c1ccccc1,0.2,·
CCOc1ccc(N=c2scc(-c3ccc4c(c3)NC(=O)CO4)n2C2CC2)cc1,2.9,·
COC(=O)c1ccc2c(=O)[nH]c(COC(=O)c3cnc(C)cn3)nc2c1,-1.7,·

# The last 2 compounds of the section before open the next one.
smiles,BasE inh,LANA-nucl inh
CCOc1ccc(N=c2scc(-c3ccc4c(c3)NC(=O)CO4)n2C2CC2)cc1,2.9,·
COC(=O)c1ccc2c(=O)[nH]c(COC(=O)c3cnc(C)cn3)nc2c1,-1.7,·
O=S(=O)(c1ccccc1)c1nnn2c1nc(N1CCCC1)c1sccc12,0.7,-0.17
Cc1ccc2c(c1)c1nc3ccccc3nc1n2CC(=O)OC(C)C,-3.4,1.9
C/S(=N\S(=O)(=O)c1cccc2nonc12)c1ccc(C(F)(F)F)cn1 (configuration not stated),2.4,-0.96
CC(=O)Nc1ccc(S(=O)(=O)NCC2CCC(C(=O)NC(C)c3ccc4c(c3)OCCO4)CC2)cc1 (configuration not stated),-2.1,0.38
Cn1c(CNS(=O)(=O)c2ccc3c(c2)OCCO3)nnc1SCc1cccnc1,0.3,-0.59
Cc1nn(-c2ccccc2)c2c1N(C(=O)CCC(=O)NC1CCCCCC1)CCS2,0.5,-1.7
On1c(-c2cccc(F)c2)nc2c1CCc1nonc1-2,1.3,-0.29
CCS(=O)(=O)NCC(c1ccc(N(C)C)cc1)N1CCc2ccccc21 (configuration not stated),2.2,-0.4
CC(Oc1ccc(/C=C(/C#N)C(=O)N2CCOCC2)cc1)C(=O)O (configuration not stated),3.2,-0.33
COc1ccccc1CC(=O)NCC1OCCc2ccccc21 (configuration not stated),-0.9,·
Cc1cc(OCc2ccc(/C=C(/C#N)S(=O)(=O)c3ccccc3)o2)ccc1Cl,-0.1,-0.55
CCC(=O)c1c(C)oc2ncnc(Nc3ccc(CCO)cc3)c12,1.4,0.037
CCn1c(C)cc(/C=C2/NC(=O)N(c3ccccc3)C2=O)c1C,9.1,0.14
O=C(COCC(=O)N1CCCC1)N1CCCC1,1.7,-0.056
COc1ccc(CN(C(=O)Nc2ccccc2)C2CC2)cc1,-0.6,·
Cc1nn(-c2ccccc2)c2nc(-c3ccccc3)cc(C(=O)N3CCOCC3)c12,-1.0,·
NC(=O)Cn1c(CN2CCCC2c2ccc3c(c2)OCCCO3)nc2ccccc2c1=O (configuration not stated),1.1,·
O=C(NC1CCCCC1)Sc1ccc(Cl)cc1,0.7,·
FC(F)n1c(=S)[nH]c2ccccc21,1.8,·
COc1ccc(OC)c(-c2csc(=Nc3cccnc3)n2Cc2ccco2)c1,0.8,·
O=C(CC1=NS(=O)(=O)c2ccccc2N1)NCCc1c[nH]c2ccccc12,0.9,-0.99
CN(CCc1ccccn1)C(=O)c1cccc(OC(F)F)c1,1.4,·
COc1ccccc1NC(=O)C(c1ccccc1)N1CCOCC1 (configuration not stated),3.2,-1.3
COc1ccccc1NC(=S)NC1CC2CCC1C2 (configuration not stated),0.1,·
COC(=O)c1cnn2c(=O)c3c(n(C)c12)CCN(Cc1ccccc1)C3,-3.6,-0.1

# (list continues)
Compound	BasE inh	LANA-nucl inh
CC(C)NC(=S)NNc1ccccc1C(F)(F)F	1.0	·
Cc1cc(Cl)ccc1OCCCC(=O)NN1CCOCC1	-1.7	-1.5
CC1=[N+]([O-])C(C)(C)CC(C)c2ccccc21 (configuration not stated)	0.1	-0.32
Cc1c(-c2ccccc2)nc2ccccc2c1C(=O)O	-4.1	1.1
O=C(CC12CC3CC(CC(C3)C1)C2)N1CCCC1CO (configuration not stated)	0.1	·
O=C(Nc1ccc(OC(F)(F)F)cc1)Oc1ccccc1N1CCOCC1	2.3	·
COc1ccc(CCC(=O)Nc2ccc3nc4n(c(=O)c3c2)CCCC4)cc1	-5.8	1.7
CN(C)c1cccc(C(=O)OCc2cc(=O)oc3cc(O)ccc23)c1	3.0	·
Cc1cc2occ(CC(=O)Oc3ccc4c(c3)OCO4)c2cc1C	-0.4	·
O=C(CN1C(=O)COc2ccc(Cl)cc21)N1CCc2ccccc21	0.8	-0.69
O=C1CCc2cc(C(=O)CSc3ccc(Cl)cc3Cl)ccc2N1	-3.0	·
CS(=O)(=O)Nc1ccccc1C(=O)OCC(=O)Nc1ccccc1C(F)(F)F	2.7	·
CCN(C(=O)c1cnccc1C(F)(F)F)c1c(C)cccc1C	-1.1	·
O=P1(NCCO)C=C(c2ccccc2)OC(c2ccccc2)=C1	-1.3	·
CCC(c1nnnn1CCc1ccccc1)N(Cc1ccco1)Cc1cc2cc(C)ccc2[nH]c1=O (configuration not stated)	-2.9	0.36
Cc1cc(NCCNc2ccccc2)c2ccc3ccccc3c2n1	-13	·
COC(=O)C1C(=O)CC(=O)CC1c1ccco1 (configuration not stated)	-1.1	1.6
CC1(C)CC(=O)C2=C(C1)OC1=C(C2)C(=O)CC(C)(C)C1	0.7	-0.47
O=C(COC(=O)c1ccccc1NC(=O)c1ccco1)Nc1ccccc1	1.2	·
Cc1ccc(-c2nc3ccc(S(N)(=O)=O)cc3[nH]2)s1	-0.8	·
O=C(C1CCN(S(=O)(=O)c2cccc3nonc23)CC1)N1CCCC1	-0.7	0.46
CC1SC(C)C(=O)N(CC(=O)Nc2ccc3c(c2)OCCO3)C1=O (configuration not stated)	1.7	-0.63
CC(=O)Nc1cccc(-c2nnc(SCc3cccc(Cl)c3)n2C)c1	1.9	-0.53
CC(C)(C)c1cc(C(=O)OCCN2CCCCC2)cc(C(C)(C)C)c1	-1.1	·

# 7 compounds picked at random from the list so far, as already listed:
Compound	BasE inh	LANA-nucl inh
CCC(c1nnnn1CCc1ccccc1)N(Cc1ccco1)Cc1cc2cc(C)ccc2[nH]c1=O (configuration not stated)	-2.9	0.36
CC(C)(C)c1cc(C(=O)OCCN2CCCCC2)cc(C(C)(C)C)c1	-1.1	·
O=P1(NCCO)C=C(c2ccccc2)OC(c2ccccc2)=C1	-1.3	·
CC1(C)CC(=O)C2=C(C1)OC1=C(C2)C(=O)CC(C)(C)C1	0.7	-0.47
O=C(COC(=O)c1ccccc1NC(=O)c1ccco1)Nc1ccccc1	1.2	·
Cc1ccc(-c2nc3ccc(S(N)(=O)=O)cc3[nH]2)s1	-0.8	·
Cc1cc(NCCNc2ccccc2)c2ccc3ccccc3c2n1	-13	·

# (more compounds)
Compound	BasE inh	LANA-nucl inh
CCN1C(=O)/C(=c2/s/c(=C3\SC(C)=C(C)N3CC)c(=O)n2CC)N(C)C1=S	4.3	-0.73
CC(C)N(Cc1ccccc1)C(=O)c1ccc2c(c1)OCO2	·	0.3
CCOC(=O)NC(=O)c1cn(Cc2cccs2)c(=O)n(C)c1=O	-1.9	·
O=C(NCc1ccccc1)N1c2ccccc2Sc2ccccc21	0.0	·
CCn1c(-c2cccnc2)n[nH]c1=S	15	-0.95
CCOc1ccc2[nH]c3nc(SCC4CCCO4)nnc3c2c1 (configuration not stated)	0.5	-0.11
OCc1ccc(-c2nn(Cc3ccccc3)c3ccccc23)o1	-2.9	0.22
N/C(=N\c1nc2c(c(=O)[nH]1)CCC2)Nc1cccc(Cl)c1	-2.0	0.13
O=C1c2ccccc2C(O)(c2ccccc2)N1CCc1ccccc1 (configuration not stated)	-0.9	-0.004
CN(C)/C=C1\CCCCN2C(=O)/C(=C\c3ccc(Cl)cc3)N=C12	-6.9	·
CC(OC(=O)C1CCN(S(=O)(=O)c2ccc3c(c2)OCCO3)CC1)C(=O)Nc1ncc(Cl)cc1Cl (configuration not stated)	0.5	·
Nc1nc(SCC(=O)NC2CCCCC2)n[nH]1	1.4	·
CCOC(=O)Cn1cnc2c(sc3nc(C)cc(C)c32)c1=O	1.2	0.32
COc1ccc(Cc2nnc(C(=O)N3CCN(c4ccc(C)cc4C)CC3)o2)cc1OC	2.0	0.58
Cc1ccc(OCCN2CCN(c3nc(NCc4ccccc4)c4ccccc4n3)CC2)cc1	-2.9	1.2
CN(Cc1cccs1)C(=O)c1ccc2c(c1)OCO2	1.2	·
COc1ccc(C2(C(=O)N3CCCC3)CCCC2)cc1OC	-0.9	-0.75
NNC(=O)CNC(c1ccccc1)c1cc(Br)ccc1N (configuration not stated)	-0.7	0.29
CC(C)(C)OC(=O)N1CCC(C(=O)Nc2ccc(OC(F)(F)F)cc2)CC1	-0.1	·
COc1ccc(C2=NOC(C(=O)N(C)Cc3ccccc3)C2)cc1OC (configuration not stated)	-2.5	-0.91
CS(=O)(=O)N(CC(=O)N1CCC(C(N)=O)CC1)c1cccc(C(F)(F)F)c1	-0.6	-0.4
Cc1ccccc1Nc1nc(N)nc(CSc2nc3ccccc3c(=O)n2C)n1	-1.5	·
c1ccc(CSC23CC4CC(CC(C4)C2)C3)cc1	2.2	·
Cc1cc(/C=C2/C(=N)N3C=CSC3=NC2=O)c(C)n1-c1ccccc1	-3.6	·
CCOC(=O)Cc1csc(NC(=O)CSc2nc(N)c3c4c(sc3n2)CCCC4)n1	-0.5	·
COC(=O)c1ccc(Nc2nc3ccc(C)cc3n3cnnc23)cc1	1.9	-0.36
Nc1c(N(C(=O)C2CCCO2)C2CCCC2)c(=O)[nH]c(=O)n1Cc1ccccc1 (configuration not stated)	0.9	·
COc1cc2c(cc1OC)CN(C(=O)CCC(=O)O)CC2	-1.1	-0.85
CCOC(=O)C1CCCN(C(=O)COc2ccc3oc4ccccc4c3c2)C1 (configuration not stated)	2.3	·
CC(Oc1ccccc1)C(=O)N1CCCC1 (configuration not stated)	2.7	-0.2
CCC(=O)N1c2ccc(S(=O)(=O)NC(C)C)cc2CC1C (configuration not stated)	1.9	-1.4
Cc1onc(-c2ccccc2)c1C(=O)NCCc1ccccc1	2.6	0.52
Cc1ccc2nc(SCC(=O)N(C)C3CCCCC3)c(C#N)cc2c1	1.5	-0.76
Cc1ccc(Cn2cc3c(n2)-c2c(oc(C(=O)NCCCN4CCN(c5ccc(F)cc5)CC4)c2C)CC3)cc1	-1.1	1.1
Clc1ncc(CN2CCOCC2)s1	·	2.3
Cc1ccc(S(=O)(=O)Nc2cccc3ccc(-n4nc(C)cc4C)nc23)cc1	2.0	-0.24
Cc1ccc2c(=O)c(C(=O)c3ccccc3)c[nH]c2n1	-11	·
COc1ccc2oc(=O)cc(CN(C)c3c(C)cccc3C)c2c1	-1.6	0.69
Cc1ccc(C2C3=C(COC3=O)Nc3c2c(=O)n(C)c(=O)n3C)cc1 (configuration not stated)	-3.0	·
CCCCNC(=O)c1cn(CC)c2ccc(S(=O)(=O)N3CCCC3)cc2c1=O	-1.6	-0.17
Cc1cc(-c2nnc(SCC(=O)c3cc4ccccc4oc3=O)o2)no1	-4.3	2.2
OCCCc1cn[nH]c1C(F)(F)F	·	0.68
CCN(CC)C(=O)CSc1nnc(C(C)N(C)C)n1-c1ccc(F)cc1 (configuration not stated)	-2.0	·

# Structures from the list above containing a cyano group:
Compound	BasE inh	LANA-nucl inh
CC(Oc1ccc(/C=C(/C#N)C(=O)N2CCOCC2)cc1)C(=O)O (configuration not stated)	3.2	-0.33
Cc1cc(OCc2ccc(/C=C(/C#N)S(=O)(=O)c3ccccc3)o2)ccc1Cl	-0.1	-0.55
Cc1ccc2nc(SCC(=O)N(C)C3CCCCC3)c(C#N)cc2c1	1.5	-0.76
